# GLA inh pH 4.5 = blocks human alpha-galactosidase A at pH 4.5. activity change, negative = inhibition, % at 105 µM. AID 1467. purified enzyme, 4-MU-alpha-Gal fluorescence, pH 4.5. 230,000 tested, under 10 active; inconclusive = small, poorly fitted or top-dose-only inhibition, or a rising curve; inactive = flat fitted curve, though single readings scatter; no compound was filed as active;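 further: 0% = full activity with enzyme and -100% = basal without enzyme; dose as in the result columns while the protocol names 77 µM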
# Target sequence (P06280 whole entry, looked up): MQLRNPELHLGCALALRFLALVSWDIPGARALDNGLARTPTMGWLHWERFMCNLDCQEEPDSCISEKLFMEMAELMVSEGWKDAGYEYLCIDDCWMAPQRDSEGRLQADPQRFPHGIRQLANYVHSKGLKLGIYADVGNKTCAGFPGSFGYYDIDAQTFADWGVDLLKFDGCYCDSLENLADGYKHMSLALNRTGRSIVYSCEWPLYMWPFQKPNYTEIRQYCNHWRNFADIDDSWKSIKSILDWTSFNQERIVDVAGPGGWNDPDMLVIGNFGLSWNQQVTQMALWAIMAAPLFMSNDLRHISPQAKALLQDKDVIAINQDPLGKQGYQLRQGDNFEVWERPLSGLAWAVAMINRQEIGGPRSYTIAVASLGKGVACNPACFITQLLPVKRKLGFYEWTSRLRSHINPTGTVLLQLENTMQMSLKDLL
# Rango release inh = prevents RanGTP from dissociating the Rango-importin beta complex; O95149+P62826; Biochemical FRET Rango-importin beta, RanGTP-induced dissociation; Potency, µM (titrated, usually from 46.1 µM), inactives show top-dose activity change, negative = inhibition; 0.071% of 340,000 active; AID 540253; active means falling FRET ratio curve, often poorly fitted, with flat reads before Ran was added; inconclusive means other falling curves, or compound fluorescence or quenching; inactive means flat or rising ratio curve;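 further: potency means the concentration at half of the fitted maximal effect; % of control where 0% means no effect; nearly all actives have a fitted effect of over 45% in size; -100% = wells without RanGTP and RCC1; the record marks most hits as doubtful in a second field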
#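 Two FRET readings bracket the reaction: one 5 min after compound meets Rango–importin beta, another 45 min after RanGTP-RCC1 (0.6 uM Ran, 0.2 uM RCC1, 2 mM GTP) is added. Only the second defines inhibition.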
# Rango-impB inh = inhibitors of Rango-importin beta complex formation; Potency, µM (series often up to 92.2 µM), for the others: at the top dose inhibition of complex formation; Rango CFP/YFP FRET sensor + importin beta, 45 min; 0.031% of 340,000 active; active = rising FRET ratio curve, often small or poorly fitted; inconclusive = mostly compound fluorescence or quenching in the first reads; inactive = flat curves in all reads;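 further: potency means the concentration at half of the fitted maximal effect; 0% = DMSO wells and 100% = buffer wells lacking importin beta; nearly all actives have a fitted effect of over 15% in size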
#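 FRET biosensor Rango (snurportin 1 IBB between N-terminal EYFP and C-terminal Cerulean), 50 nM in PBS/1 mM DTT/0.02% Tween-20/0.1% BSA, preincubated 5 min RT with compound; 0.125 microM importin beta added, 45 min RT, CFP/YFP FRET ratio read.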
# miR-21 reporter = miR-21 reporter, rising signal; HeLa miR-21 FLuc reporter, luciferase, 48 h; AID 2288; Potency, µM (doses to about 38.3 µM), inactives show at the top dose reporter change, positive = more light; 340,000 tested, under 10 active; active = well fitted rising curve with a large enough effect; inconclusive = small, poorly fitted or top-dose-only effect; inactive = no such curve, though single readings can be large or run the other way;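 further: % of control where 0% means no effect; miR-21 action dims this reporter so a rising signal means less miR-21 action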
#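 Compounds were titrated across several concentrations (up to approximately 40 uM) and incubated 48 hours with HeLa miR-21-FLuc reporter cells (miR-21 target sequence downstream of FLuc, endogenous miR-21). Readout was firefly luciferase luminescence after lytic detection reagent.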
# Starred values were filed as active, the others as inactive; ? = inconclusive; nt = not tested or not shown. These rows are one share of the data; the hit share may differ from the screen's.
SMILES,GLA inh pH 4.5,Rango release inh,Rango-impB inh,miR-21 reporter
O=C(NCC1CCCO1)C(c1ccccn1)N(Cc1ccccc1Cl)C(=O)CN1C(=O)c2ccccc2S1(=O)=O (stereo not given),5,4%,0.0%,-2%
COc1ccc(C2(C)NC(=O)N(CC3CCCCC3)C2=O)cc1 (stereo not given),nt,-15%,-0.7%,2%
CC(C(=O)NC1=NCCS1)N1C(=O)c2ccccc2C1=O (stereo not given),2,-3%,-3.1%,-1%
COc1ccc(SCC(=O)c2cc(C)c(OC(=S)N(C)C)c(C)c2)cc1,-4,8%,-0.7%,-13%
CCCN(CCC)C(C(=O)Nc1cccc(OC)c1)c1ccccc1 (stereo not given),-9,7%,0.6%,-3%
CCOc1ccccc1NC(=O)C1CC(=O)n2ncnc2N1 (stereo not given),2,0%,0.2%,-6%
O=C(Nc1ccccc1)C1=C[C@H](c2coc3ccccc3c2=O)C[C@H](OCCCCO)O1,-2,-4%,2.5%,-1%
O=[N+]([O-])c1ccc(Oc2ccc(-c3cnc4ccccc4n3)cc2[N+](=O)[O-])cc1,2,0%,0.0%,-46%
COc1ccc(CN(C)c2ccc(S(=O)(=O)N3CCN(C)CC3)cc2[N+](=O)[O-])cc1OC,nt,1%,-3.7%,nt
COC(=O)Cn1c(=NC(=O)c2ccc(Cl)s2)sc2cc(F)ccc21,5,-7%,2.3%,-22%
CCC1(C)N=C(N)Nc2nc3cc(C)c(C)cc3n21 (stereo not given),10,4%,4.8%,-2%
CCOC(=O)CSc1ccc(C(=O)Nc2ccc(Cl)cc2)cn1,5,14%,3.0%,-3%
COc1ccc(-n2nnc3c(SCC(=O)NCC4CCCO4)ncnc32)cc1 (stereo not given),0,15%,-0.8%,5%
Nc1nnc(SCC(=O)NCC(=O)Nc2ccc(F)c(F)c2F)s1,nt,-1%,-1.7%,nt
Cc1ccc(C(=O)Nc2ccc(Oc3cccc(C(F)(F)F)c3)nc2)cc1,-3,2%,0.9%,9%
COc1ccc2sc(-c3ccc(S(C)(=O)=O)cc3)c(-c3ccc(SC)cc3)c2c1,nt,-12%,2.9%,nt
CC(=O)c1cccc(NC(=O)c2c(-c3c(F)cccc3Cl)noc2C)c1,nt,10%,0.6%,nt
CCc1ccc(NC(=O)COC(=O)CN2C(=O)COc3ccccc32)cc1,0,7%,-2.6%,-10%
CC(C)N(C(=O)[C@H]1C[C@H](CC(=O)NCC23CC4CC(CC(C4)C2)C3)C(=O)N2CCc3c([nH]c4cc(-c5ccco5)ccc34)[C@]12C)C(C)C,nt,-14%,0.4%,nt
O=C(CSc1nnc(CNC(=O)c2ccc(F)cc2)o1)NCc1ccc(F)cc1,nt,-1%,-1.2%,0%
C=CS(=O)c1sc(Cl)c(N2CCOCC2)c1[N+](=O)[O-] (stereo not given),-2,-4%,0.1%,?
Cc1ccc(-n2c(SCC(=O)c3c(N)n(C)c(=O)n(C)c3=O)nc3sc4c(c3c2=O)CCCC4)c(C)c1,-4,16%,0.7%,-4%
CN(C)c1ccc(C(=O)N(Cc2ccccc2)Cc2ccccc2)cc1,nt,-12%,0.3%,1%
COC(=O)c1ccc(N2Cc3ccccc3/C2=N\C(=O)Nc2ccccc2)cc1,2,6%,-1.1%,-20%
Cc1cc(Cl)ccc1OCC(=O)n1cc(C(=O)c2cc(Cl)ccc2O)cn1,3,nt,nt,8%
CCc1ccc(C(C(=O)NC2CCCC2)N(C(=O)c2csnn2)C2CC2)cc1 (stereo not given),nt,4%,-0.8%,-2%
O=C(NC1CCCCC1)c1ccccc1-c1ccccc1,-8,-2%,-4.0%,0%
C/C(=N\NC(=O)c1c([N+](=O)[O-])c(C)nn1C)c1ccc(NC(=O)c2ccc(C)o2)cc1,nt,-15%,?,-41%
COc1cccc(C(=O)NNC(=O)Cc2ccc([N+](=O)[O-])cc2)c1,8,-6%,0.4%,-12%
Cc1nnc(Nc2ccc(O)cc2)[nH]c1=O,7,-4%,-2.1%,-1%
Cn1c(SCC(=O)N2c3ccccc3CCc3ccccc32)nnc1-c1ccc(O)cc1,0,8%,2.0%,11%
COc1cc(-c2c(C(C)=O)c(C)nc3c2C(=O)c2ccccc2-3)cc(OC)c1OC,nt,-19%,-3.0%,-1%
O=C(CCC(=O)NNC(=O)Cc1ccccc1)NCc1ccccc1,0,-7%,-5.0%,-3%
CC1=Nn2c(nnc2-c2ccccc2F)SC1,-2,5%,2.2%,-3%
COc1ccc(N2CC(C(=O)Nc3ccccc3C(=O)NC3CC3)CC2=O)cc1 (stereo not given),nt,-8%,-3.3%,1%
O=C(Nc1ccc(OC(=O)c2ccccc2)c(-c2nc3ccccc3s2)c1)c1ccccc1,11,4%,1.4%,-5%

# Look-ups from the list.
# `Cc1ccc(-n2c(SCC(=O)c3c(N)n(C)c(=O)n(C)c3=O)nc3sc4c(c3c2=O)CCCC4)c(C)c1` in miR-21 reporter reads -4%
# `COC(=O)Cn1c(=NC(=O)c2ccc(Cl)s2)sc2cc(F)ccc21` in miR-21 reporter reads -22%

# Back to the main list; the six compounds before the break are reprinted first.
SMILES,GLA inh pH 4.5,Rango release inh,Rango-impB inh,miR-21 reporter
Cn1c(SCC(=O)N2c3ccccc3CCc3ccccc32)nnc1-c1ccc(O)cc1,0,8%,2.0%,11%
COc1cc(-c2c(C(C)=O)c(C)nc3c2C(=O)c2ccccc2-3)cc(OC)c1OC,nt,-19%,-3.0%,-1%
O=C(CCC(=O)NNC(=O)Cc1ccccc1)NCc1ccccc1,0,-7%,-5.0%,-3%
CC1=Nn2c(nnc2-c2ccccc2F)SC1,-2,5%,2.2%,-3%
COc1ccc(N2CC(C(=O)Nc3ccccc3C(=O)NC3CC3)CC2=O)cc1 (stereo not given),nt,-8%,-3.3%,1%
O=C(Nc1ccc(OC(=O)c2ccccc2)c(-c2nc3ccccc3s2)c1)c1ccccc1,11,4%,1.4%,-5%
COc1ccccc1NC(=O)C(=O)c1cn(CC(=O)N2CCCC2)c2ccccc12,nt,-4%,2.7%,-26%
O=C(OCc1ccc(F)cc1Cl)c1ccccn1,-10,-17%,-2.1%,-5%
Fc1cccc(NC(=S)Nc2ccc(Br)cc2)c1,9,-1%,-4.2%,17%
Cc1cccc(NC(=O)CSc2ccc(-c3ccccn3)nn2)c1C,1,-4%,-2.7%,1%
CC(=O)OCC(=O)Nc1ccc(SC(F)F)cc1,1,-2%,4.1%,-9%
O=C(NC(NC(=O)c1ccccc1)c1cccc([N+](=O)[O-])c1)c1ccccc1,6,5%,0.2%,-8%
CCCC(=O)Nc1cc(C(=O)O)ccc1S(=O)(=O)c1ccc(Cl)cc1,-7,4%,1.2%,-6%
Cc1c(Br)c([N+](=O)[O-])nn1C(C)C(=O)Nc1nccs1 (stereo not given),-4,-15%,-0.4%,-2%
CC(/C=C/c1ccc2c(c1)OCO2)=N\NC(=O)COc1ccccc1C,4,11%,0.1%,-3%
COc1cccc(C2c3[nH]c4ccccc4c3CCN2CCCn2cccn2)c1 (stereo not given),3,-4%,?,1%
Cc1ccc(F)cc1NC(=O)c1c(-c2ccccc2)noc1C,-2,-12%,-1.0%,-5%
O=C(CCNS(=O)(=O)c1ccccc1)NNC(=O)COc1ccccc1F,nt,21%,0.7%,nt
COc1ccccc1NC(=O)Cc1nnc(SCC(=O)NC2CCCC2)n1C,nt,1%,0.0%,2%
COC(=O)[C@@]12CCCN1[C@H](c1ccc(-c3ccc4c(c3)OCO4)cc1)[C@H]1C(=O)N(C)C(=O)[C@H]12,nt,9%,-3.1%,nt
Cc1ccc(-n2c(=O)cc(N3CCCCCC3)[nH]c2=O)cc1,5,-9%,-1.0%,-13%
COc1ccc(OC2CCN(S(=O)(=O)c3ccc(C(C)=O)cc3)CC2)cc1,nt,-2%,0.1%,9%
CCOc1ccc(N2C(=O)/C(=C/c3cccs3)N(C)C2=S)cc1,5,-23%,?,-3%
O=C1NC[C@H](Cc2ccccc2)N(CC2CCN(CCC3CCCC3)CC2)C1=O,nt,13%,2.3%,nt
Cc1cccc(-c2noc(CNC(=O)c3ccc4c(c3)OCO4)n2)c1,nt,6%,3.5%,-6%
COc1ccccc1/C=N/NC(=O)CN(C1=NS(=O)(=O)c2ccccc21)c1ccccc1,-1,-9%,-3.0%,4%
CCOC(=O)C1CCCN(C(=S)NC(=O)c2cc(Br)ccc2Cl)C1 (stereo not given),nt,-9%,-0.1%,nt
CC(C)OP(C)(=O)CN1CCN(CP(C)(=O)OC(C)C)CC1 (stereo not given),-4,-2%,-4.7%,0%
O=[N+]([O-])c1ccc(N/N=C/c2cccs2)nc1,nt,?,?,nt
Cc1csc2c(NC3CCN(Cc4ccccc4)CC3)ncnc12,-13,16%,-3.0%,-2%
CCOc1ccc(C2C(C(=O)/C=C/c3ccco3)=C(O)C(=O)N2CCN2CCOCC2)cc1OC (stereo not given),1,?,?,0%
O=S(=O)(c1cc(Cl)ccc1Cl)N1CCC2(CC1)OCCO2,nt,-9%,-0.4%,-8%
COc1ccc(N2C(=NC(=O)C3CCCCC3)SC3CS(=O)(=O)CC32)cc1OC (stereo not given),nt,9%,-1.2%,0%
c1ccc(CNCc2ccc3c(c2)OCO3)nc1,5,2%,-5.1%,-12%
O=C(COC(=O)c1ccc([N+](=O)[O-])s1)NCCc1ccccc1,nt,-2%,3.1%,nt
CC12CCC(=O)N1C(C(=O)NNC(=O)COc1ccc(Br)cc1)CS2 (stereo not given),nt,5%,4.7%,nt
O=C(COC(=O)/C=C/c1cccc(Br)c1)NC1CC1,nt,-9%,1.1%,nt
COC(=O)c1ccc(N2CCN(CC(=O)c3ccc(C)cc3)CC2)c([N+](=O)[O-])c1,nt,12%,-3.2%,nt
Cc1cc(C)c(NC(=O)CC(=O)c2ccccc2)c(Cl)c1,nt,-6%,2.5%,-32%
CC(O)Cn1ccccc1=N (stereo not given),-7,11%,0.1%,-1%
CCOC(=O)c1cccc(N2C(N)=NC(N)=NC2(C)C)c1,-14,-2%,0.8%,-4%
COc1cc(NC(=O)CCCNC(=O)c2ccc(Cl)cc2)cc(OC)c1OC,nt,-13%,?,-2%
CC12CCC(O)CC1=CCC1C2CCC2(C)c3[nH]ncc3CC12 (stereo not given),nt,11%,-0.8%,nt
Cc1cc(NC(=O)CCC(=O)N(c2ccccc2C)C(C(=O)NC2CCCC2)c2ccccc2)no1 (stereo not given),nt,0%,1.3%,-2%
Cc1c(Cl)cccc1NC(=S)NC(=O)c1cncc(Br)c1,nt,-5%,3.7%,nt
O=C(Nc1cccc(-c2ccc(N3CCCCC3)nn2)c1)C(F)(F)F,nt,-1%,-1.7%,?
O=C1NC(=S)N/C1=C/c1cccc([N+](=O)[O-])c1,3,2%,2.3%,-2%
O=C1CC(N2CCN(c3cccc(C(F)(F)F)c3)CC2)C(=O)N1c1ccccc1F (stereo not given),-13,1%,-3.5%,-13%
COc1ccccc1C(=O)COC(=O)COc1ccc(C#N)cc1,nt,-6%,0.7%,nt
COCCn1c(C)cc(C(=O)COC(=O)CNC(=O)c2ccco2)c1C,nt,5%,1.7%,nt
CCOC(=O)N1CCN(Cc2nc3cc(NC(=O)C(C)C)ccc3n2CC)CC1,nt,0%,-2.4%,1%
Cn1c(NC(=O)C[n+]2cc(-c3ccc(Cl)cc3)n3c2CCC3)cc(=O)n(C)c1=O,-1,2%,-2.2%,-5%
COc1ccc(CCN(C)Cc2ccc(OCc3ccccc3)c(OC)c2)cc1OC,?,-5%,0.8%,-11%
S=C(Nc1ccc2nccnc2c1)N1CCOCC1,-8,-11%,4.3%,-43%
Cn1nc(C(F)(F)F)c(-c2cccc(C(F)(F)F)c2)c1NC(=O)Nc1ccc(F)cc1,1,1%,-0.2%,12%
CNc1oc(Cc2ccccc2)nc1S(=O)(=O)c1ccccc1,-4,0%,7.4%,-1%
COc1ccc(/C=C/C(=O)NC(=S)Nc2ccc(S(=O)(=O)N=C(N)N)cc2)cc1OC,nt,-8%,-0.8%,-4%
O=[N+]([O-])c1ccc(Cl)c(S(=O)(=O)Nc2cccc(S(=O)(=O)NC3=NCCC3)c2)c1,nt,-10%,-1.7%,nt
COc1ccc(S(=O)(=O)N2CCOCC2)cc1NC(=O)CSc1nnnn1C1CC1,nt,11%,0.2%,nt
